Compound activity (PubChem)
AF4-AF9 inh: blocks AF4 peptide binding to human AF9 | P42568 | AlphaScreen, biotin-AF4 peptide binding to FLAG-AF9 | inhibition, % at 10 µM | 350,000 compounds, 0.47% hits;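 active means every replicate reaching a set inhibition limit, whatever the replicate mean, cut at about 25% in these data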;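 further: 0% = plate neutral control median and 100% = total signal loss; the record names both 10 and 1 µM as test concentration; the first replicate is given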
Target sequence (P42568 whole entry, looked up): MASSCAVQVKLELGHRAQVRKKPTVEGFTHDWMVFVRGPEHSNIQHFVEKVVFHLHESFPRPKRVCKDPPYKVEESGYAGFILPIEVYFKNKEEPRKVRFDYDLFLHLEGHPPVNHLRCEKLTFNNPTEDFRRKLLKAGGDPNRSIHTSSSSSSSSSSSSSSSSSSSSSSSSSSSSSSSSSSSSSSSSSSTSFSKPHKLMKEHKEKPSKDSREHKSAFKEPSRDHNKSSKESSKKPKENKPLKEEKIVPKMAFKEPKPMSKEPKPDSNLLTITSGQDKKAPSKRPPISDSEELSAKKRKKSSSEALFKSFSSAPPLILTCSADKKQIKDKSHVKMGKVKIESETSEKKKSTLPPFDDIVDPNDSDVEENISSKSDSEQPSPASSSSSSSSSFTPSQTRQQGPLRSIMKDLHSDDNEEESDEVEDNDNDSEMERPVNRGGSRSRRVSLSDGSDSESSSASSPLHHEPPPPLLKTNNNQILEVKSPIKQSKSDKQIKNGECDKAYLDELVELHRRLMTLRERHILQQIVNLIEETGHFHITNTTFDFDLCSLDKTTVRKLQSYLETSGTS
Ecoli rRNA inh: inhibitors of bacterial rRNA selective over humanized ribosomes. E. coli WT GFP vs humanized-ribosome RFP mutants, fluorescence, 24 h; hits give low values; DMSO median 0, no signal -100. GFP signal change (wild-type ribosome), % (test concentration not listed). 350,000 compounds, 1.6% hits. AID 720706;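 active means significant combined selectivity score with lowered wild-type GFP, culture density cut under 30%, mutant RFP and density less affected; inactive means any of these conditions unmet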; further: one replicate is shown; some compounds called inactive have numbers as strong as hits
FGF22 binding: FGF22 (human) thermal shift binding. recombinant FGF22 thermal shift, SYPRO orange fluorescence; percent of sucrose octasulfate shift, DMSO zero. calls only at 9.99 µM. AID 651658. 340,000 compounds, 1.5% hits. Q9HCT0;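 active means melting point raised past a set limit in the mean and every replicate; three in four hits are not shown here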
Target sequence (Q9HCT0 whole entry, looked up): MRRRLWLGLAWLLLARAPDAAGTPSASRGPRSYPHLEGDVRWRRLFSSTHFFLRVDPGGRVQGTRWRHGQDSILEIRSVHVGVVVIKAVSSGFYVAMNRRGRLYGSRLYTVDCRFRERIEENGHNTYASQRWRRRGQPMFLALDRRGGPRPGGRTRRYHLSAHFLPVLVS
Ecoli rRNA inh OD600: also measured in Ecoli rRNA inh; calls as there; OD600 change, %; measured here: OD600 growth;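 optical density of the mix in the first replicate; 0 = DMSO median and -100 = no signal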
Ecoli rRNA inh RFP: further read-out of Ecoli rRNA inh, marked with its call; RFP signal change, %; measured here: RFP humanized mutant strains;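 first replicate; 0 = DMSO median and -100 = no signal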
An asterisk follows results filed as active; i = inactive. A portion of the library, so the mix of outcomes need not match the whole.

SMILES,AF4-AF9 inh,Ecoli rRNA inh,Ecoli rRNA inh OD600,Ecoli rRNA inh RFP,FGF22 binding
CCN(C(=O)CSc1n[nH]c(-c2cc(Cl)ccc2OC)n1)C1CCS(=O)(=O)C1 (configuration not stated),-2.0,-1,0,0.0,i
COC(=O)[C@]1(Sc2ccc(OC)cc2)CC(=O)N[C@@H]1c1ccccc1,-2.1,-16,-11,-0.9,i
CNC[C@@H]1Oc2ccc(N(C)C)cc2CC(=O)N([C@H](C)CO)C[C@@H]1C,-3.3,4,7,-1.3,i
CO[C@@H]1CN(C)C(=O)c2cc(NC(=O)C3CC3)ccc2OC[C@H](C)N(Cc2cncnc2)C[C@H]1C,-2.8,3,2,-3.3,i
CC(NCC(=O)NC(=O)NCCC1=CCCCC1)c1ccc(S(N)(=O)=O)cc1 (configuration not stated),3.8,-2,-11,2.0,i
C[C@@H]1CCCCO[C@H](CN(C)Cc2ccc3c(c2)OCO3)[C@@H](C)CN([C@@H](C)CO)C(=O)c2cc(NC(=O)Nc3ccccc3)ccc2O1,14,4,-8,1.1,i
CC(=O)C1(C)CCC2C3C=C(C)C4=CC(=O)CCC4(C)C3CCC21C (configuration not stated),16,-56,-76,-17,i
C[C@H]1CN([C@@H](C)CO)C(=O)Cc2cc(NS(=O)(=O)c3cccs3)ccc2O[C@@H]1CN(C)CC1CCCCC1,-29,-1,-20,0.2,i
COc1ccc(NC(=O)Nc2ccc3c(c2)C(=O)N([C@@H](C)CO)C[C@H](C)[C@@H](CN(C)S(=O)(=O)c2cccs2)OCCCC[C@H](C)O3)cc1,1.4,-6,1,-1.5,i
Cc1ccc(S(=O)(=O)N[C@H]2CC[C@H](CCn3cc(-c4ccccc4F)nn3)O[C@@H]2CO)cc1,0.3,-1,-18,0.7,i
COc1ccccc1NC(=O)N[C@H]1CC[C@@H](CCn2cc(-c3ccccc3)nn2)O[C@H]1CO,1.7,-1,4,0.2,i
CCCCn1c(N)c(N(CCC)C(=O)C2CCCC2)c(=O)[nH]c1=O,-3.0,19,10,0.1,i
CO[C@@H]1CN(C)C(=O)c2cc(NC(=O)c3ccccc3)ccc2OC[C@@H](C)N(C(C)=O)C[C@@H]1C,4.6,-2,3,2.4,i
CC(Oc1ccc(F)cc1)C(=O)Nc1cc(S(=O)(=O)N2CCCCC2)ccc1N1CCN(C)CC1 (configuration not stated),11,-1,-30,4.8,i
COc1ncc(-c2ccc(N3C(c4ccsc4)=Cc4ccccc4C3CC(C)=O)cc2)cn1 (configuration not stated),0.2,-3,1,7.1,i
C[C@H](CO)N1C[C@H](C)[C@@H](CN(C)C(=O)Nc2cccc3ccccc23)Oc2ccc(NC(=O)C3CC3)cc2C1=O,-4.1,4,14,-2.0,i
CC1(c2ccccc2)C(C#N)C(=O)NC(=O)C1C#N (configuration not stated),-3.9,4,7,-1.8,i
Cc1noc(C)c1NC(=O)Nc1ccc2c(c1)C(=O)N(C)[C@H]1CC[C@H](CC(=O)NCc3ccc(Cl)cc3)O[C@@H]1CO2,1.0,0,-8,0.0,i
Cc1ccc(S(=O)(=O)N[C@H]2C=C[C@H](CC(=O)NC3CCCCC3)O[C@@H]2CO)cc1,3.2,-2,-5,0.5,i
O=C(Nc1ccc(Cl)c(C(F)(F)F)c1)C1Cc2c(-c3ccccc3)ccnc2O1 (configuration not stated),-1.9,-14,-34,35,i

A portion from further up, as a working copy:
SMILES,AF4-AF9 inh,Ecoli rRNA inh,Ecoli rRNA inh OD600,Ecoli rRNA inh RFP,FGF22 binding
COC(=O)[C@]1(Sc2ccc(OC)cc2)CC(=O)N[C@@H]1c1ccccc1,-2.1,-16,-11,-0.9,i
CNC[C@@H]1Oc2ccc(N(C)C)cc2CC(=O)N([C@H](C)CO)C[C@@H]1C,-3.3,4,7,-1.3,i
CO[C@@H]1CN(C)C(=O)c2cc(NC(=O)C3CC3)ccc2OC[C@H](C)N(Cc2cncnc2)C[C@H]1C,-2.8,3,2,-3.3,i
CC(NCC(=O)NC(=O)NCCC1=CCCCC1)c1ccc(S(N)(=O)=O)cc1 (configuration not stated),3.8,-2,-11,2.0,i
C[C@@H]1CCCCO[C@H](CN(C)Cc2ccc3c(c2)OCO3)[C@@H](C)CN([C@@H](C)CO)C(=O)c2cc(NC(=O)Nc3ccccc3)ccc2O1,14,4,-8,1.1,i

More records:
SMILES,AF4-AF9 inh,Ecoli rRNA inh,Ecoli rRNA inh OD600,Ecoli rRNA inh RFP,FGF22 binding
C[C@H](CO)N1C[C@H](C)[C@H](CN(C)Cc2ccncc2)Oc2ccc(NC(=O)Cc3cn(C)c4ccccc34)cc2CC1=O,1.8,-1,-6,2.5,i
CC(=O)Nc1ccc(NC(=O)c2cc(-c3ccc(F)cc3C)n[nH]2)cc1,-0.5,-5,-4,-1.6,i
C[C@H](CO)N1C[C@H](C)[C@@H](CN(C)C(=O)Nc2ccccc2)Oc2ccc(NS(=O)(=O)c3cccs3)cc2CC1=O,-0.8,4,10,-1.9,i
C[C@@H]1CN([C@H](C)CO)C(=O)Cc2cc(NC(=O)C3CCCCC3)ccc2O[C@H]1CN(C)C(=O)Nc1ccc(C(F)(F)F)cc1,-1.2,-6,6,0.9,i
O=C(NC1CCCCC1)c1cccc(NC(=O)c2ccccc2Cl)c1,-0.4,-8,-13,-5.8,i
CCOC(=O)[C@]12CCCC=C1N(Cc1ccccc1)C(=O)[C@H](CC(=O)NCC13CC4CC(CC(C4)C1)C3)C2,-1.6,-7,6,7.9,i
COc1cc(C(=C(CC(=O)O)C(=O)O)c2ccc3c(c2)OCO3)cc(OC)c1OC,-4.9,2,7,-2.8,i
CCCNC(=O)N1CC2(CN(Cc3ccncc3)C2)c2c(n(C)c3cc(OC)ccc23)[C@@H]1CO,2.6,1,6,1.5,i
O=C(Nc1ccccc1F)N[C@@H]1CC[C@@H](CCNC(=O)C2CC2)O[C@H]1CO,-20,7,13,-1.1,i
OC(c1ccc(Cl)cc1)c1ncc(-c2cccc(F)c2)[nH]1 (configuration not stated),4.6,-5,-40,13,i
Cc1cc(F)cc(-c2cc(C(=O)NCc3ccc(C(F)(F)F)cc3)[nH]n2)c1,-2.1,3,12,2.5,i
COc1ccc(NC(=O)Nc2ccc3c(c2)C(=O)N([C@@H](C)CO)C[C@@H](C)[C@H](CN(C)C(=O)Nc2c(C)noc2C)O3)cc1,-6.0,5,9,-1.0,i
O=C(c1ccncc1)N1C[C@H]2[C@@H](c3ccccc31)[C@H](CO)N2C(=O)CN1CCOCC1,6.9,5,7,-0.9,i
CCCNC(=O)Nc1ccc2c(c1)OC[C@@H](C)N(C)C[C@H](C)[C@@H](OC)CN(C)C2=O,-2.7,1,4,-0.9,i
C=CC[C@@H](CC(=O)N(CCO)Cc1ccccc1)C(=O)N[C@H](COC(=O)[C@H](CC=C)CC(=O)OC(C)(C)C)Cc1c[nH]c2ccccc12,2.7,8,12,3.8,i
COc1ccc(NC(=O)Nc2cccc3c2O[C@@H](CN(C)S(=O)(=O)c2ccc(OC)cc2)[C@@H](C)CN([C@@H](C)CO)C3=O)cc1,3.8,2,-5,1.6,i
CNC[C@@H]1Oc2ccc(N)cc2C(=O)N([C@@H](C)CO)C[C@H]1C,-10,4,13,1.9,i
Cc1ccccc1-c1ccc2c(c1)O[C@@H](CN(C)C)[C@@H](C)CN([C@H](C)CO)S2(=O)=O,-2.0,1,1,0.3,i
Cc1ccccc1-c1nnc(-c2cccc3ccccc23)o1,-1.6,4,15,2.7,i
C[C@H]1CN([C@@H](C)CO)C(=O)Cc2cc(NS(=O)(=O)c3ccc(F)cc3)ccc2O[C@@H]1CN(C)S(=O)(=O)c1cccs1,0.9,-1,11,-0.8,i
Cc1ccc(S(=O)(=O)Nc2ccc3c(c2)C(=O)N([C@@H](C)CO)C[C@@H](C)[C@@H](CN(C)C(=O)Nc2ccc(C(F)(F)F)cc2)O3)cc1,-0.3,-1,-8,1.7,i
COC(=O)Cc1ccc(OC2(C)CCN(Cc3ccccc3)C2)cc1 (configuration not stated),-0.4,9,1,-0.3,i
CC(C)NC(=O)Nc1ccc2c(c1)CC(=O)N([C@@H](C)CO)C[C@H](C)[C@H](CN(C)CC1CC1)O2,-2.6,5,9,0.2,i
COc1ccc(Cc2c(-c3ccco3)nc3ccc(Cl)cn23)c(C)c1,-3.8,-12,1,-0.8,i
Cc1ccc(S(=O)(=O)N[C@@H]2CC[C@@H](CCn3cc(C4CCCCC4)nn3)O[C@H]2CO)cc1,0.2,-2,-10,1.8,i
C[C@H](CO)N1C[C@H](C)[C@H](CN(C)S(=O)(=O)c2ccccc2)OCCCC[C@H](C)Oc2ccc(NS(=O)(=O)c3cn(C)cn3)cc2C1=O,1.2,-2,-6,0.3,i
CCS(=O)(=O)Nc1ccc2c(c1)C(=O)N(C)C[C@@H](OC)[C@@H](C)CN(C(=O)c1ccc3c(c1)OCO3)[C@@H](C)CO2,3.4,3,4,-1.0,i
O=C(Nc1cccc(F)c1)N1CC(=O)N2[C@H](CO)[C@H](c3ccc(Br)cc3)[C@@H]2C1,-3.7,-5,2,-1.4,i
Cc1cc(Br)cn2c(Cc3cccc(Cl)c3)c(-c3cccc(Cl)c3)nc12,1.7,-8,-1,25,i
CO[C@@H]1CN(C)C(=O)c2ccc(NS(=O)(=O)c3cn(C)cn3)cc2OC[C@H](C)N(C)C[C@H]1C,-1.8,3,2,0.2,i
O=C(C[C@H]1CC[C@@H]2[C@H](COC[C@H](O)CN2C(=O)c2ccccc2F)O1)NCc1ccc(F)cc1,-1.8,4,7,-1.4,i
Nc1[nH]c(C(=O)c2ccccc2)c(-c2ccc([N+](=O)[O-])cc2)c1C(=O)NCCc1c[nH]c2ccccc12,2.9,-22,6,5.7,i
CCOC(=O)C1=C(CC)Nc2ccccc2N=C1NC(=O)c1ccc(OC)c(S(=O)(=O)N2CCOCC2)c1,4.1,-2,3,-0.3,i
COc1ccccc1-c1cnc2c(c1)C(=O)N([C@@H](C)CO)C[C@H](C)[C@H](CN(C)Cc1cccnc1)O2,-3.1,1,3,-2.8,i
CCCNC(=O)N1C[C@@H](C)[C@H](OC)CN(C)C(=O)c2ccc(NC(=O)CC)cc2OC[C@H]1C,-1.6,1,13,0.0,i
C[C@H]1CN([C@@H](C)CO)C(=O)c2cc(NC(=O)C3CC3)ccc2O[C@@H]1CN(C)C(=O)Nc1ccc2c(c1)OCO2,-2.2,4,4,0.5,i
Cc1noc(C)c1NC(=O)Nc1ccc2c(c1)C(=O)N([C@@H](C)CO)C[C@H](C)[C@H](CN(C)S(=O)(=O)c1ccc(Cl)cc1)O2,0.1,3,1,-0.3,i
C[C@H]1CN([C@@H](C)CO)C(=O)c2cc(Br)cnc2O[C@H]1CN(C)S(=O)(=O)c1ccccc1,-11,-3,0,-0.4,i
CNC[C@H]1Oc2cc(-c3ccc(C)cc3)ccc2S(=O)(=O)N([C@H](C)CO)C[C@@H]1C,1.1,8,-2,-0.3,i
C[C@H]1CN([C@@H](C)CO)C(=O)c2cc(C#Cc3ccncc3)cnc2O[C@@H]1CN(C)CC1CCCC1,-4.8,13,18,-3.5,i
C[C@H](CO)N1C[C@H](C)[C@H](CN(C)S(=O)(=O)c2ccc(F)cc2)Oc2ccc(NC(=O)Cc3ccccc3)cc2C1=O,-1.0,-2,-7,0.2,i
C[C@@H]1CCCCO[C@H](CN(C)Cc2ccc3c(c2)OCO3)[C@@H](C)CN([C@H](C)CO)C(=O)c2cc(NC(=O)Nc3ccccc3)ccc2O1,4.8,0,-27,-3.5,i
CCCNC(=O)C1(C)CCCN(C(=O)C(c2ccccc2)c2ccccc2)C1 (configuration not stated),4.7,11,2,2.8,i
CO[C@@H]1CN(C)C(=O)c2ccc(NC(=O)c3ccno3)cc2OC[C@H](C)NC[C@@H]1C,-3.6,5,-2,-1.3,i
CO[C@@H]1CN(C)C(=O)c2cc(NC(=O)c3ccccc3F)ccc2OC[C@@H](C)N(C(=O)c2ccccc2F)C[C@@H]1C,1.7,-5,-6,-3.0,i
CCN1C(=O)[C@H]2[C@@H](c3ccc(C)cc3)N[C@]3(CCCN(CC4CCCCC4)C3=O)[C@H]2C1=O,-0.8,-3,0,0.0,i
N#C[C@@H]1[C@H](c2ccc(C#CC3CCCCC3)cc2)[C@H](CO)N1S(=O)(=O)c1ccccc1,-0.2,1,2,-2.0,i
CCOCc1c(C(=O)OCC(=O)Nc2ccccc2C(N)=O)oc2ccccc12,-0.6,-12,-17,1.3,i
CO[C@@H]1CN(C)C(=O)c2cc(NC(=O)C3CCC3)ccc2OC[C@H](C)N(CC2CCCCC2)C[C@H]1C,3.1,-4,-12,5.4,i
COc1ccccc1NC(=O)N[C@@H]1CC[C@H](CCNS(=O)(=O)c2ccc(Cl)cc2)O[C@@H]1CO,2.6,-5,-11,5.7,i
